StopGo RLuc = FMDV 2A StopGo reporter, Renilla signal; 120,000 compounds, 0.32% hits; Potency, µM (highest dose often 57.5 µM), for inactives: at the top dose signal change, negative = less light; HEK cells with a luciferase reporter of 2A StopGo recoding; AID 1745857; active means well fitted falling curve with a large enough effect; inconclusive means small, poorly fitted or top-dose-only effect; inactive means no such curve, though single readings can be large or run the other way; further: nearly all actives have a fitted effect of over 55% in size; overnight with compound
StopGo FLuc = lowers the firefly signal of an FMDV 2A StopGo reporter; Potency, µM (highest dose often 57.5 µM), for the others: at the top dose signal change, negative = less light; 120,000 compounds, 0.23% hits; HEK cells with a luciferase reporter of 2A StopGo recoding; AID 1745856; active = well fitted falling curve with a large enough effect; inconclusive = small, poorly fitted or top-dose-only effect; inactive = no such curve, though single readings can be large or run the other way; further: nearly all actives have a fitted effect of over 60% in size; overnight with compound
Starred values were filed as active, the others as inactive; ? = inconclusive; & = joins results of further samples; [ ] = dose if it differs, or a comment. On the % scale 0 is the no-effect control and ±100 the full control effect; potency means the concentration at half of the fitted maximal effect. A portion of the library (hit frequency here may not be typical).

SMILES	StopGo RLuc	StopGo FLuc
CCOC(=O)CNS(=O)(=O)c1cc(-c2nn(C)c(=O)c3ccccc23)ccc1C	235%[activator]	20%
O=C1c2ccccc2NC(c2cnc3ccccc3n2)N1c1ccccc1 (configuration not stated)	13%	14%
Cc1cc(C)c(C#N)c(SCc2cc(=O)oc3ccc(O)cc23)n1	6%	2%
CCCCCn1nc(C(=O)Nc2ccccc2C(C)=O)c2ccccc2c1=O	13%	21%
O=C(NC1CCCC1)C1CCC(Cn2cnnn2)CC1 (configuration not stated)	-4%	3%
O=C(NCc1ccccc1)c1ccc(-c2csc(C3CC3)n2)cc1	131%[activator]	157%[activator]
COc1ccc2[nH]c(=O)c(CN(C3CCCCC3)S(=O)(=O)c3ccccc3)cc2c1	48%[activator]	-28%
COc1ccccc1CNC(=O)Cc1c(C)c2c(cc(C)c3c(C)c(C)oc32)oc1=O	-12%	-17%
COCCCNC(=O)CCCn1c(SCC(=O)c2ccc(Br)cc2)nc2c(sc3ccccc32)c1=O	-6%	-6%
COc1ccc(-c2cc(C(=O)NCC(c3ccc(C)o3)N3CCN(C)CC3)no2)cc1 (configuration not stated)	-19%	3%
CC(Sc1cc(C(=O)NC2CC2)c2ccccc2n1)C(=O)N1CCOCC1 (configuration not stated)	-9%	0%
CCc1ccc(CNC(=O)c2cccc(-n3c(C)nc4cccnc43)c2)cc1	?	?
COc1cccc(-c2ccc3c(N)c(C(=O)NCc4ccc(Cl)cc4)sc3n2)c1	-6%	9%
CCN(C(=O)C1CCN(c2nc3ccccc3o2)CC1)c1ccc(F)c(F)c1	-11%	-6%
CCCNc1nc(-c2cccc(Cl)c2)cs1	25%	251%[activator]
Cc1cc(C)cc(NS(=O)(=O)c2ccc3[nH]cc(C(=O)NC4CCCCC4)c(=O)c3c2)c1	238%[activator]	-16%
Cc1ccccc1NC(=O)c1cn(Cc2ccccc2)nn1	23%	149%[activator]
Nc1c(C(=O)NCCc2ccccc2)nnn1CC(=O)Nc1ccc(Cl)cc1	-4%	-19%
Cc1ccc2c(Sc3ccc(Cl)cc3)c(C(=O)NCCC(C)C)[nH]c2c1	6%	-11%
CCOc1ccccc1CNCc1c(C(=O)O)c(C)n(Cc2ccc(Cl)cc2)c1C	69%[activator]	-13%
COc1ccc(S(=O)(=O)N(CC(=O)NCc2ccccc2OC)c2ccc(C)cc2)cc1	87%[activator]	31%
CCCCCCC1CCC(C(=O)Oc2ccc(OCC)cc2)CC1 (configuration not stated)	-8%	7%
Cc1c(C(=O)N2CCCCCC2)c(S(=O)(=O)NCc2ccccc2)c(C)n1C	-10%	-11%
N#C/C(=C\c1cccc(OC(=O)c2ccccc2Cl)c1)C(=O)Nc1cccc(C(F)(F)F)c1	1%	128%[activator]
O=C(COC(=O)Cc1n[nH]c(=O)c2ccccc12)NCC1CCCO1 (configuration not stated)	-3%	7%
COc1ccc(C(=O)/C=C/c2ccc(Br)cc2)cc1CSCC(=O)O	3%[1.06 µM]	0%
NC(=O)C1CCCN(c2nc(-c3cccs3)nc3ccccc23)C1 (configuration not stated)	9%	-4%
CCOC(=O)c1ccc(NC(=O)CC2C(=O)N(c3cccc(OC)c3)C(=O)N2Cc2ccc(OC)cc2)cc1 (configuration not stated)	61%[activator]	-13%
COc1ccc(-c2nc3c(=O)n(C)c(=O)[nH]c3n2C)cc1	-8%	-2%
Cc1ccccc1NC(=O)CSc1nc2nccnc2c(=O)n1CCc1c[nH]c2ccccc12	3%	3%
O=C(CCc1ncc(-c2ccc(F)cc2F)o1)Nc1ccc2c(c1)C(=O)NC2	-1%	40%[activator]
CCOC(=O)c1cnc2c(OC)cccc2c1Nc1ccc(C)cc1	-1%	-3%
CCOc1ccccc1NS(=O)(=O)c1ccc2c(c1)oc(=O)n2C	124%[activator]	20%
CCOC(=O)c1[nH]c(C)c(CCC(=O)NCc2ccccc2C)c1C	78%[activator]	32%[activator]
CC(=O)NC(NC(C)=O)c1cccc(Oc2ccccc2)c1	5%	4%
CCN1C(=O)C2(CC(=O)Nc3[nH]ncc32)c2ccccc21 (configuration not stated)	-8%	6%
CCCCN(C(=O)c1cccnc1OCC)c1c(N)n(Cc2ccccc2)c(=O)[nH]c1=O	4%	4%
Cc1nc(C)c(-c2ccc(SCC(=O)Nc3ccc(C)c(F)c3)nn2)s1	2%	3%
Cc1nn(C(=O)c2c(F)cccc2F)c(C)c1S(=O)(=O)N1CCOCC1	-3%	-6%
CCCn1c(-c2ccc(Cl)cc2)nc2c(=O)n(C)c(=O)[nH]c21	-9%	-8%
COc1cc(OC)c2cc(C(=O)NCC(=O)Nc3nc(C)cs3)n(C)c2c1	-12%	-4%
N#Cc1ccc(NCCCNc2ccc(C#N)cn2)nc1	30%[activator]	22%
O=c1oc2c(CN3CCOCC3)c(O)ccc2cc1-c1ccccc1	4%	57%[activator]
Cc1ccc(CCNC(=O)CN2N=C(c3ccc(C)cc3)CCC2=O)cc1	-7%	-12%
O=C1OC2OCCCC2C1Nc1ccc(I)cc1 (configuration not stated)	1%	3%
CSc1ncc(C(=O)Nc2ccc(C(C)=O)cc2)c(-c2ccccc2)n1	-8%	91%[activator]
COC(=O)C(/C(C)=N/C(NC(C)=O)(C(F)(F)F)C(F)(F)F)C(NC(C)=O)(C(F)(F)F)C(F)(F)F (configuration not stated)	19%	20%
Fc1cccc(-c2nc(-c3ccncc3)no2)c1	8%&10%	185%&56%[activator]
CN(CCCNC(=O)c1nc2ccccc2c(=O)[nH]1)C(=O)c1ccc(-c2ccccc2)cc1	8%	67%[activator]
CCOC(=O)c1ccc2nc(C)cc(Nc3cccc(C(=O)O)c3)c2c1	-9%	-6%
The list goes on:
SMILES	StopGo RLuc	StopGo FLuc
O=C(Nc1ccc2nc(SCC(=O)N3CCCc4ccccc43)sc2c1)c1cccc(Cl)c1	-4%	-9%
COc1ccc(C(=O)n2nc(-c3cccnc3)nc2NCc2ccccc2)cc1OC	-5%	0%
Cc1cc(C)n(CC(=O)Nc2cccc(C(=O)NCc3ccccn3)c2)c(=O)c1C#N	-8%	-1%
CCCCn1c(O)c(C2=Nc3ccccc3SC(c3ccc(O)cc3)C2)c(=O)[nH]c1=O (configuration not stated)	?	86%[activator]
O=C(Nc1ccc(F)cc1)Nc1c(NC2CCCCC2)c2ccccc2oc1=O	0%	-18%
Cn1c(=O)c2c(nc(NCc3ccccc3)n2CCCc2ccccc2)n(C)c1=O	4%	-1%
O=C(Cn1c(=O)c(CCC(=O)NC2CC2)nc2ccccc21)Nc1cccc(C(F)(F)F)c1	26%	1%
O=C(COc1ccccc1)Nc1ccccc1OCc1cc(=O)n2ccccc2n1	-8%	-19%
CC(OC(=O)c1cc(=O)[nH]c2ccccc12)C(=O)Nc1ccc(Cl)cc1 (configuration not stated)	4%	-7%
COc1ccc(/C=C/c2nc(-c3ccccc3O)n(-c3ccccc3)n2)cc1OC	9%	10%
Cc1sc2nc(CN3CCOCC3)nc(N(C)CC(=O)Nc3ccc(F)cc3)c2c1C	-4%	3%
CCOc1ccc(S(=O)(=O)NCCc2sc(-c3cccc(F)c3)nc2C)cc1	165%[activator]	0%
CC(=O)NCCc1nc2ccccc2n1CCCCOc1ccc(Cl)cc1	?	?
COc1ccc(OC)c(C2c3c(-c4ccc(Br)cc4)n[nH]c3C(=O)N2c2ccc(Cl)cc2)c1 (configuration not stated)	?	?
Cc1ccccc1NC(=O)CS(=O)(=O)Cc1nc(-c2ccccc2C)oc1C	-3%	1%
COc1cc(C#N)ccc1OCC(=O)c1ccc2ccccc2c1	105%[activator]	0%
COc1ccc(NC(=O)N(Cc2ccc3c(c2)OCO3)C2CCN(Cc3ccccc3)CC2)cc1	-3%	34%[activator]
O=C(CCS(=O)Cc1ccccc1)Nc1ccccc1 (configuration not stated)	0%	22%
CCCc1ccc(C2Sc3ccccc3NC3=C2C(=O)c2ccccc23)cc1 (configuration not stated)	126%[activator]	?
CC1(C)CC(=O)C/C(=N/NC(=O)C2CCCCC2)C1	-3%	7%
COc1ccc(-c2noc(-c3ccc(NCC4CCCO4)c([N+](=O)[O-])c3)n2)cc1OC (configuration not stated)	-9%	-5%
CCc1ccc(C(=O)N2CCN(C(=O)C3(C)CC3(Cl)Cl)CC2)cc1 (configuration not stated)	-3%	5%
O=C(Nc1ccc(OCc2cc(=O)n3c4c(sc3n2)CCCC4)cc1)c1ccccc1	21%	-25%
Cc1cc(C)n2ncc(-c3noc(C(=O)NC[C@@H](C)O)n3)c2n1	-9%	0%
C/C(=N\NC(=O)c1ccc(C)s1)c1ccncc1	129%[activator]	66%[activator]
COc1ccc(NC(=O)c2ccccc2Cl)c2cccnc12	-13%	14%
COC(=O)c1sc(NC(=O)COc2c(C)cc(C)cc2C)nc1C	4%	11%
O=C(CC(Nc1cc(C(F)(F)F)ccc1Cl)C(=O)O)c1ccccc1 (configuration not stated)	158%[activator]	-1%
CCOC(=O)c1ccc2ccccc2c1-c1c(C(=O)OCC)ccc2ccccc12	3%	6%
O=C(Cc1noc(C(=O)NCc2ccccc2Cl)n1)Nc1cccc2ncccc12	0%	-1%

Copied from the entries so far for reference:
SMILES	StopGo RLuc	StopGo FLuc
COc1ccc(NC(=O)N(Cc2ccc3c(c2)OCO3)C2CCN(Cc3ccccc3)CC2)cc1	-3%	34%[activator]
O=C(CCS(=O)Cc1ccccc1)Nc1ccccc1 (configuration not stated)	0%	22%
CCCc1ccc(C2Sc3ccccc3NC3=C2C(=O)c2ccccc23)cc1 (configuration not stated)	126%[activator]	?
CC1(C)CC(=O)C/C(=N/NC(=O)C2CCCCC2)C1	-3%	7%
COc1ccc(-c2noc(-c3ccc(NCC4CCCO4)c([N+](=O)[O-])c3)n2)cc1OC (configuration not stated)	-9%	-5%
CCc1ccc(C(=O)N2CCN(C(=O)C3(C)CC3(Cl)Cl)CC2)cc1 (configuration not stated)	-3%	5%
O=C(Nc1ccc(OCc2cc(=O)n3c4c(sc3n2)CCCC4)cc1)c1ccccc1	21%	-25%
Cc1cc(C)n2ncc(-c3noc(C(=O)NC[C@@H](C)O)n3)c2n1	-9%	0%
C/C(=N\NC(=O)c1ccc(C)s1)c1ccncc1	129%[activator]	66%[activator]
COc1ccc(NC(=O)c2ccccc2Cl)c2cccnc12	-13%	14%
COC(=O)c1sc(NC(=O)COc2c(C)cc(C)cc2C)nc1C	4%	11%
O=C(CC(Nc1cc(C(F)(F)F)ccc1Cl)C(=O)O)c1ccccc1 (configuration not stated)	158%[activator]	-1%
CCOC(=O)c1ccc2ccccc2c1-c1c(C(=O)OCC)ccc2ccccc12	3%	6%
O=C(Cc1noc(C(=O)NCc2ccccc2Cl)n1)Nc1cccc2ncccc12	0%	-1%

Later entries
SMILES	StopGo RLuc	StopGo FLuc
O=C(CC1C(=O)N(c2ccccc2)C(=O)N1CCC1=CCCCC1)Nc1ccc(F)cc1 (configuration not stated)	165%[activator]	-3%
CCOc1ccc(NC(=O)CN2C(=O)COc3ccc(S(=O)(=O)Nc4ccccc4)cc32)cc1	0%	3%
COc1ccc(C2=NN(C(=O)C(C)(C)C)C(c3ccc4nccnc4c3)C2)cc1 (configuration not stated)	-1%	21%
Cn1c(=O)c2c(nc(N3CCN(c4ccccc4)CC3)n2Cc2ccccc2Cl)n(C)c1=O	4%	14%
CCCCNC(=O)c1ccc(NC(=O)c2ccc(F)cc2)cc1	-4%	10%
COc1ccc(CNC(=O)CCS(=O)(=O)c2cc(Br)cc3c2N(C(C)=O)C(C)C3)cc1 (configuration not stated)	9%	-5%
CCCNCc1ccc(-c2ccc(F)cc2)o1	-14%	11%
CCOc1cc(C2C(C(=O)OC)=C(C)NC3=C2C(=O)c2ccccc23)ccc1OC (configuration not stated)	19%	1%
Cc1cccnc1NC(=O)c1cnc2ccccc2n1	-4%	109%[activator]
CCC(=O)N(CC)Cc1cc(=O)[nH]c2ccccc12	-13%	-6%
O=C(CSc1nc2c([nH]c3ccccc32)c(=O)n1-c1ccccc1F)Nc1cccc(C(F)(F)F)c1	-23%	?
CCC(=O)N1CCc2cc(CNC(=O)Cc3ccc(OC)c(OC)c3)ccc21	3%	-9%
Cc1ccc(S(=O)(=O)N2CCC(C(=O)NC3CC(C)(C)NC(C)(C)C3)CC2)cc1	-19%	-8%
O=c1c(NCc2cccs2)nccn1-c1ccccc1	23%	2%
CC(=O)Nc1cccc(NC(=O)C(=O)c2cn(CC(=O)N3CCOCC3)c3ccccc23)c1	26%	73%[activator]
Cc1cc(C)c(NC(=O)c2cc(S(=O)(=O)N3CCC4(CC3)OCCO4)ccc2F)c(C)c1	10%	-12%
CCN1CCN(Cc2nc3c(c(=O)[nH]c(=O)n3C)n2CCCc2ccccc2)CC1	-6%	-3%
CC(=O)c1ccc(NC(=O)c2nc(-c3ccccc3)oc2C)cc1	-3%	13%
CC(C)Nc1nc(C(=O)Nc2ccccc2O)cs1	?	54%[activator]
Cc1ccccc1OCCSc1nc2cc(S(=O)(=O)N(C)C)ccc2o1	?	?
CN(CC(=O)N(C)c1ccccc1C(=O)NCc1ccco1)Cc1ccc(F)cc1	-3%	-4%
Cc1c(/C=C(/C#N)c2ccccn2)cc(C#N)n1C	7%	25%
Cc1c(Cl)cccc1Nc1nc(N)nc(CSc2nc3ccccc3s2)n1	41%[activator]	-2%
COc1ccccc1NC(CC(=O)c1ccccc1)C(=O)OCC(=O)c1ccc(Cl)cc1 (configuration not stated)	16%	127%[activator]
O=Cc1ccc(-c2ccc(I)cc2C(F)(F)F)o1	5%	29%
COc1ccc(C)c2sc(N3CCN(C(=O)c4cccc(F)c4)CC3)nc12	2%	0%
Cc1ccc(NC(=O)Cn2nc(C(=O)O)c3ccccc3c2=O)c(Br)c1	-9%	-6%

Individual results from above.
StopGo RLuc result of COc1ccc(C)c2sc(N3CCN(C(=O)c4cccc(F)c4)CC3)nc12 : 2%
StopGo RLuc result of CN(CC(=O)N(C)c1ccccc1C(=O)NCc1ccco1)Cc1ccc(F)cc1 : -3%

Assay outcomes from PubChem BioAssay.
